Source: PubChem BioAssay (National Center for Advancing Translational Sciences (NCATS))
VACV Venus inh = vaccinia inhibition (Venus reporter); Vaccinia virus Venus reporter expression, fluorescence; Potency, µM (titrated, usually from 36.5 µM), without a hit: at the top dose activity change, negative = inhibition, most hits filed as inhibitors; actives 0.46% (n = 330,000); active means well fitted inhibition curve with a large enough effect; inconclusive means small, poorly fitted or top-dose-only effect; inactive means no such curve, though single readings can be large or run the other way; tested in A549 cells; note: nearly all actives have a fitted effect of over 30% in size; inactives centre near -10
VACV mCherry inh = inhibitors of vaccinia virus infection (mCherry reporter signal); Vaccinia virus mCherry reporter infection, fluorescence; about a quarter of the inactives have no number; Potency, µM (top dose mostly 36.5 µM), for the others: top-dose activity change, negative = inhibition, usual class: inhibitors; actives 0.63% (n = 310,000); active = well fitted inhibition curve with a large enough effect; inconclusive = small, poorly fitted or top-dose-only effect; inactive = no such curve, though single readings can be large or run the other way; tested in A549 cells; note: nearly all actives have a fitted effect of over 35% in size; inactives centre near -10
Starred values were filed as active, the others as inactive; i = inactive; ? = inconclusive; . = no result given; & = joins results of further samples; [ ] = another dose, or the depositor's remark. % is set by controls: 0 for no effect and ±100 for the full control effect; potency is the fitted concentration of half-maximal effect.

Each structure is followed by: VACV Venus inh | VACV mCherry inh
O=C(NCc1nc2ccccc2[nH]1)C1=C[C@H](C2CCCCC2)C[C@H](OCc2ccc(CO)cc2)O1
 : ? | -4%
Cc1cc(=O)oc2c(C)c(OCC(=O)NCCc3ccc(S(N)(=O)=O)cc3)ccc12
 : 0%[7.34 µM] | i[7.34 µM]
Cc1noc(C)c1C(=O)Nc1ccc(F)cc1F
 : -10% | .
CCCS(=O)(=O)c1c(S(=O)(=O)CCC)c2ccc(C(N)=O)cn2c1C(=O)c1ccc(F)cc1
 : -10% | -1%
C[C@]12CCC3C(CC[C@H]4C[C@H](O)[C@H](O)C[C@]34C)C1CC[C@@H]2O (stereo partly specified)
 : -6% | i
C=CCn1c(SCC(=O)NC(=O)NC2CCCC2)nnc1C1CCCCC1
 : -10% | -1%
CCCSc1nc2sc3c(c2c(=O)n1-c1ccc(C)cc1)CCCC3
 : -7% | -11%
CCN(CC)C(=O)Cc1c(O)c2ccccc2[nH]c1=O
 : 8% | -8%
CN1CCC(=NNC(=O)C(=O)NCc2ccccc2)CC1
 : -13% | i
OC[C@H]1OC(O)[C@@H](O)[C@@H](O)[C@@H]1O (stereo partly specified)
 : 0% | -15%
CC(C(=O)NCCSCc1cccc(Cl)c1)N(c1ccccc1)S(C)(=O)=O (stereo unspecified)
 : -7%&-1% | -20%&-6%
COc1ccc(C2=CC(=O)CCC2)cc1
 : -8% | i
FC(F)(F)c1ccc(Oc2ccc3ccccc3c2Br)nc1
 : 13% | -8%
CC1(C)C(N(O)C(=O)Nc2ccccc2)N(c2cccc(Cl)c2)C(=O)N1O (stereo unspecified)
 : ? | .
O=C(COC(=O)CNC(=O)c1ccccc1F)Nc1ccc2c(c1)OCO2
 : -2% | -13%
CCCCOc1ccc(C(=O)NCC(=O)N2CCN(C(=O)c3ccco3)CC2)cc1
 : -10% | i
COCCn1c(CN2CCC(Cc3ccccc3)CC2)nc2c1c(=O)n(C)c(=O)n2C
 : -16% | .
O=C(NNC(=O)c1ccncc1)Nc1ccc(Cl)cc1
 : -4% | i
CCOCc1nnc(NC(=O)COc2ccc3c(c2)OCO3)s1
 : -11% | ?
O=[N+]([O-])c1ccc(CN2CC(N3CCC(Cc4ccccc4)CC3)CS2(=O)=O)cc1 (stereo unspecified)
 : ? | -28%
COc1cc2c(cc1OC)CN(c1ncccc1[N+](=O)[O-])CC2
 : -6% | -11%
Cc1cc(C(=O)NCCc2ccc(S(N)(=O)=O)cc2)c(C)o1
 : -15% | 2%
O=C(COC(=O)[C@@H]1CC(O)CN1S(=O)(=O)c1ccccc1[N+](=O)[O-])Nc1ccc2ccccc2c1 (stereo partly specified)
 : -11% | -12%
COc1ccccc1CNC(=O)c1n[nH]c2ccccc12
 : -7% | 2%
CC(=O)c1ccc(NC(=O)CCCc2nc(-c3cccc(C)c3)no2)cc1
 : -4% | -3%
COc1ccc(C)c2sc(NC(=O)c3ccc(S(=O)(=O)N4CCCCC4)cc3)nc12
 : 1% | -8%
O=C(NCC1OCCCN1S(=O)(=O)c1ccc(F)cc1)C(=O)NC1CCCC1 (stereo unspecified)
 : -15% | i
CC(=O)c1c(C)nc2ccc([N+](=O)[O-])cc2c1-c1ccccc1
 : -21% | -13%
O=C1c2ccccc2N[C@@H]2C=CC[C@@H]2N1O
 : -12% | -7%
COC(=O)c1c(NC(=O)C(C)Oc2ccc(Cl)c(C)c2)sc(C)c1C (stereo unspecified)
 : -2% | -14%

3 compounds already listed, ordered by heavy-atom count, ascending:
Each structure is followed by: VACV Venus inh | VACV mCherry inh
COc1ccccc1CNC(=O)c1n[nH]c2ccccc12
 : -7% | 2%
CC(=O)c1c(C)nc2ccc([N+](=O)[O-])cc2c1-c1ccccc1
 : -21% | -13%
CCCS(=O)(=O)c1c(S(=O)(=O)CCC)c2ccc(C(N)=O)cn2c1C(=O)c1ccc(F)cc1
 : -10% | -1%

Later entries
Each structure is followed by: VACV Venus inh | VACV mCherry inh
Cc1cccc(N2CCN(C(=O)CCc3nnc4n(CC(C)C)c(=O)c5ccccc5n34)CC2)c1C
 : -6% | -25%
CC1=Nc2ccccc2N=C(NC(=O)CSC(=S)N2CCCCC2)C1c1ccccc1 (stereo unspecified)
 : -15% | -21%
COc1cc2c(cc1OC)C(C)N(C(=O)c1cc3c(C)cc(C)cc3[nH]1)CC2 (stereo unspecified)
 : -11% | i
O=C(N/C(=C\c1ccco1)C(=O)N1CCCC1)c1cccs1
 : -13% | -9%
CCOc1ccc(C(=O)NCCNC(=O)c2ccc(OCC)cc2)cc1
 : 8% | i
C[C@@H]1CN([C@@H](C)CO)C(=O)c2cccc(NC(=O)c3nc4ccccc4s3)c2O[C@@H]1CN(C)CC1CC1
 : -3% | -20%
Cc1occc1-c1nnc(SCC(=O)c2cc3ccccc3oc2=O)o1
 : 1% | .
Cn1c(=O)cc(OCCCC(=O)NCc2ccc3c(c2)OCO3)c2ccccc21
 : -13% | i
NC(=O)c1nn(CC(=O)Nc2ccc3c(c2)OCO3)cc1[N+](=O)[O-]
 : 2% | 6%
O=c1ccn(CCCBr)c(=O)[nH]1
 : 5%[7.34 µM] | i[7.34 µM]
CCc1nnc(NC(=O)C2Cc3ccccc3CN2S(=O)(=O)c2cccs2)s1 (stereo unspecified)
 : -12% | .
COC(=O)c1cccc(N2C(=O)C[C@](Sc3ccc(C)cc3)(C(=O)OC)[C@H]2c2ccccc2)c1
 : 10% | i
O=c1c(NCCc2ccc(Cl)cc2)nccn1-c1ccccc1
 : -3% | -7%
NS(=O)(=O)c1ccc(NC(=O)C2COc3ccccc3O2)cc1 (stereo unspecified)
 : -3% | -11%
O=C(CCc1nc2ccccc2c(=O)[nH]1)OCc1ccccc1F
 : -5% | -14%
CCOc1ccc(NC(=O)c2cnn3c(C(F)F)cc(-c4ccc(C)cc4)nc23)cc1
 : 11% | 10%
CCOc1cc(C(=O)Nc2ccc3nc(Nc4cccc(Cl)c4)cc(C)c3c2)cc(OCC)c1OCC
 : -21% | -15%
COc1ccccc1NC(=O)c1oc2ccccc2c1NC(=O)Cc1cccs1
 : ? | ?
COc1cccc(NC(=O)NCc2c(-c3ccccc3)noc2C)c1
 : -15% | -20%
O=C(Cc1c(C(=O)O)[nH]c2ccccc12)NC1CCCC1
 : -3% | i
CC(C)(C)c1ccc(/C=N/n2cnnc2)cc1
 : 4% | -3%
COC(=O)CN(c1ccccc1C)S(C)(=O)=O
 : 0% | -2%
O=c1cc(-c2ccco2)oc2ccc(Cl)cc12
 : -4% | 7%
CC(C)n1nc(C(=O)NCCc2ccc(S(N)(=O)=O)cc2)c2ccccc2c1=O
 : -15% | .
C=CCNC(=O)c1ccc2nc(-c3ccccc3)c(-c3ccccc3)nc2c1
 : -19% | -15%
N#Cc1cc(C(=O)Cc2ccccc2)c[nH]1
 : -11% | -1%
COc1ccc(CCN2C(=O)N(c3ccc(F)cc3)C(=O)C2CC(=O)Nc2ccccc2)cc1 (stereo unspecified)
 : 1% | -8%
CCCC(=O)N1CCC1(C)C(=O)NS(=O)(=O)c1cccc(Cl)c1 (stereo unspecified)
 : 0% | -8%
NC(=Nc1ccc(Cl)cc1)c1ccccc1
 : -19% | -28%
Cc1ccc(C(=O)N/N=C2\CCSC2)cc1[N+](=O)[O-]
 : -15% | -9%
NC(CCC(=O)NC(CCSC(CC(=O)O)C(=O)O)C(=O)NCC(=O)O)C(=O)O (stereo unspecified)
 : -21% | -1%
O=C(/C=C/c1ccccc1)c1ccoc1
 : -11% | .
COc1ccc2c(CNC3CCCC3)c(C(=O)O)n(Cc3ccccc3C)c2c1
 : -5% | -6%
CC(O)[C@H]1CNC(=O)C(=O)N1CCCCC1CCCCC1 (stereo partly specified)
 : -7% | i
O=C(COc1ccc(Cl)cc1)NCCC1=CCCCC1
 : -8% | -13%
Cc1[nH]c2ccccc2c1C(=O)CN1CCC(C(N)=O)(N2CCCCC2)CC1
 : -12% | .
CCn1nc(C)c(/C=N/NC(=O)c2ccc3c(c2)c(C)c(C)n3Cc2ccccc2)c1C
 : ? | -8%
COc1cccc(NC(=O)c2ccc(S(=O)(=O)N3CCCC3)cc2)c1
 : -19% | -14%
COc1ccccc1-n1c(=O)c2c3c(sc2n2c(SC)nnc12)CCC3
 : -7% | i
O=S(=O)(/N=C(\c1ccccc1)N1CCOCC1)c1ccc(Cl)cc1
 : -6% | i
Cc1csc(NC(=O)Cn2nc(C)c([N+](=O)[O-])c2C)n1
 : 0% | i
Cc1ccc(Cc2c(-c3ccco3)nc3c4ccccc4ccn23)cc1
 : 2% | 1%
Cn1c(CCC(=O)Nc2ccccc2F)nnc1SCC(=O)Nc1ccccc1Cl
 : -1% | -28%
COc1cc(C(=O)N2C(=O)CCC2=O)cc(OC)c1OC
 : -9% | -19%
CCC(C(=O)NCCC1=CCCCC1)c1ccccc1 (stereo unspecified)
 : -18% | -9%
C[C@H](CO)N1C[C@H](C)[C@@H](CN(C)C(=O)C2CC2)OCc2cnnn2CCCC1=O
 : -3% | i
Cc1ccc2c(c1)-c1c(cnc3cc(-c4ccc(F)cc4)nn13)CO2
 : -15% | -19%
C/C(=N\NC(=S)NC(C)C)c1ccccc1
 : -7% | -7%
COc1ccc2[nH]c3c(c2c1)CCN1C(=O)N([C@@H](C)C(=O)NCc2ccco2)C(=O)[C@]31C
 : -4% | -8%
Cc1cccc(NC(=O)C2CCCN(S(=O)(=O)c3cccs3)C2)c1C (stereo unspecified)
 : -4% | -26%
O=C1NC(=S)NC1=Cc1ccc(Cl)cc1Cl
 : 4% | -7%
CNC(=S)NNC(=O)COc1ccccc1C
 : -2% | -2%
O=C(Cn1c(=O)oc2cc(S(=O)(=O)N3CCCC3)ccc21)Nc1ccc(OC(F)(F)F)cc1
 : -6% | -18%
NC(=O)COc1ccc(-n2cnnn2)cc1
 : -10% | i
O=C(CSc1n[nH]c(-c2cccnc2)n1)Nc1ccccc1
 : -8% | .
Cc1ccc(-c2n[nH]c(=S)n2/N=C/c2c(C)[nH]n(-c3ccccc3)c2=O)cc1
 : -13% | -1%
COc1ccc(N2CCN(C(=O)c3cccc(NC(=O)c4ccco4)c3)CC2)cc1
 : -6% | -7%
O=P(CCNCc1ccco1)(c1ccccc1)c1ccccc1
 : 0% | i
CC(C)C(=O)Nc1nnc(CCc2nnc(NC(=O)C(C)C)s2)s1
 : -1% | -10%
CCOc1ccc(Nc2ncnc(N)n2)cc1
 : -18% | -6%

Single records, as listed above. Order of screens: VACV Venus inh, VACV mCherry inh
Entry for CC(O)[C@H]1CNC(=O)C(=O)N1CCCCC1CCCCC1 (stereo partly specified) : -7%, i
Entry for COc1ccc(CCN2C(=O)N(c3ccc(F)cc3)C(=O)C2CC(=O)Nc2ccccc2)cc1 (stereo unspecified) : 1%, -8%
Entry for Cc1cccc(N2CCN(C(=O)CCc3nnc4n(CC(C)C)c(=O)c5ccccc5n34)CC2)c1C : -6%, -25%
Entry for Cc1cc(C(=O)NCCc2ccc(S(N)(=O)=O)cc2)c(C)o1 : -15%, 2%

Carrying on:
Each structure is followed by: VACV Venus inh | VACV mCherry inh
Clc1ccc(NCc2nc3ccccc3n2CCOc2ccccc2)cc1
 : ? | -29%
COc1ccc(CNCc2c(C(=O)N(C)C)nc3ccc(Cl)cn23)c(OC)c1
 : -6% | i
CCCN(CCC)C(=O)Cn1c(=O)n(CCCCC(=O)NC2CCCC2)c(=O)c2ccccc21
 : 3% | .
COCCNC(=O)CN(c1ccccc1OC)S(C)(=O)=O
 : -3% | -14%
Clc1ccc(/C(Cc2nc3ccccc3[nH]2)=N\Nc2ccccc2)cc1
 : -7% | ?
Cc1ccc(NC(=O)c2sc(N)nc2-c2ccc([N+](=O)[O-])cc2)cc1C
 : 15% | ?
O=C(NC12CC3CC(CC(C3)C1)C2)N1CCN(C(=O)c2ccco2)CC1
 : -14% | i
CCOC(=O)c1c(-c2ccccc2)csc1/N=C/C1C(=O)CCCC1=O
 : 17% | 1%
CCOC(=O)C(O)(c1ccc(NC(=O)NC)cc1)C(F)(F)F (stereo unspecified)
 : 0%[7.34 µM] | -3%[7.34 µM]
CC(=O)C1C(=O)NC23CCCCC2C1c1ccccc1O3 (stereo unspecified)
 : -11% | -14%
O=C(COC(=O)c1cccc(-n2cnnn2)c1)c1ccccc1
 : 6% | -15%
O=C(Oc1ccc([N+](=O)[O-])cc1)c1cc(-c2ccccc2)nc2ccccc12
 : -9% | .
CC(=O)Nc1cccc(-c2csc(C(O)c3ccc(F)cc3)n2)c1 (stereo unspecified)
 : -18% | 15%
CCN(CC)C(=O)[C@H]1C[C@H](CC(=O)NCCc2ccccn2)C(=O)N2CCc3c([nH]c4cc(-c5ccco5)ccc34)[C@]12C
 : ? | -25%
O=C1N(O)C2(C=CCCC2)/C(=N\O)C12CCCCC2 (stereo unspecified)
 : -16% | -24%
CC(C)C[C@H](NC(=O)c1[nH]cnc1C(=O)Nc1ccc(CNC(=O)OC(C)(C)C)cc1)C(=O)OC(C)(C)C
 : ? | -14%
Cn1c2ccccc2n2c(=O)c(=O)n(CC(=O)c3ccc(F)cc3)nc12
 : -2% | i
CN(CC(=O)Nc1ccc(F)cc1)C(=O)C1Cc2ccccc2CN1S(C)(=O)=O (stereo unspecified)
 : -6% | i
OC(c1ccc2ccccc2c1)c1ncc(-c2cccc3ccccc23)[nH]1 (stereo unspecified)
 : 0% | -6%
CC(=O)c1cccc(CN2CCN(C(C)C)C(CCO)C2)c1 (stereo unspecified)
 : 0% | -9%

Two entries picked at random from the list so far, as already listed:
Each structure is followed by: VACV Venus inh | VACV mCherry inh
CC(=O)c1cccc(CN2CCN(C(C)C)C(CCO)C2)c1 (stereo unspecified)
 : 0% | -9%
CN(CC(=O)Nc1ccc(F)cc1)C(=O)C1Cc2ccccc2CN1S(C)(=O)=O (stereo unspecified)
 : -6% | i
